# High-throughput results from PubChem.
# ugtP null kill: growth inhibition of S. aureus ugtP deletion strain | S. aureus RN4220 ugtP deletion, OD600 growth, 16 h; some inactives read as strong as hits | growth inhibition, % (no concentration beside the values) | actives 0.54% (n = 330,000) | AID 1259309;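 active means z-score under -3 and OD600 up to 0.15 on both plates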;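 further: plate controls were untreated wells for no effect and antibiotic for full effect; wells of about 80 µL received 100 nL stock; the first replicate is given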
# Mtb hypoxia rep: reduces hypoxia-regulated biosensor signal in M. tuberculosis; M. tuberculosis hypoxia-regulated fluorescent reporter, fluorescence; fluorescence inhibition, % (concentration not given with the values); actives 0.1% (n = 300,000); AID 1159583;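 active means 35 to 45% if threefold the growth effect, above 45% if 1.5-fold the growth effect; inactive means the rest, general growth blockers included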;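 further: wells of about 50 µL received 100 nL stock; 0% = vehicle wells and 100% = reference inhibitor wells; whole bacteria with a GFP reporter of the hypoxia response; strong numbers were not always called active; many hits fall short of the cut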
# PrP UTR inh: suppresses PrP 5' UTR mRNA reporter expression; actives 0.35% (n = 340,000); cell-based PrP 5' UTR mRNA reporter, plate reader; AID 488862; inhibition, % (no concentration beside the values);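 active means every replicate at 50% or more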;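 further: 0 = median of the neutral control wells; tested in H4 reporter cells; numbers are from one replicate; inactives centre near -14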
# Autofluor counter: compound fluorescence in toxin protease inhibitor counterscreen; compound autofluorescence counterscreen, microsphere flow cytometry; stronger effect = higher value; fluorescence intensity (no concentration beside the values); actives 3.1% (n = 360,000);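 active means at least 3 SD above the mean of all compounds, about 16000 in these data; inconclusive means too few beads counted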;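 further: 100 nL of 1 mM stock went into each well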
# BJeLR lethal: BJeLR cell viability loss | inhibition, % (no concentration beside the values) | BJeLR (HRASV12) viability, CellTiter-Glo ATP luminescence, 48 h; reference of the scale not given here | AID 1554 | actives 0.17% (n = 300,000);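 active means replicate mean above 50%; inconclusive means above 50% but judged a plate artefact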;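 further: 50 nL library stock added to about 25 µL; numbers are from one replicate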
# RN4220 kill: S. aureus RN4220 growth inhibition | actives 0.33% (n = 330,000) | OD600, 16 h | AID 1259311 | inhibition, % (test concentration not listed);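 active means z-score of -3 or lower and OD600 up to 0.18 on both plates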;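 further: plate controls were untreated cells for no effect and reference antibiotic for full effect; stock transfer was 100 nL into about 80 µL; one replicate is shown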
# Mtb hypoxia rep growth: second read-out of Mtb hypoxia rep, no call of its own (marks repeat the call); growth inhibition, %; measured here: M. tuberculosis growth (absorbance);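 0% = vehicle and 100% = reference antibiotic; read after six days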
# * = called active by the depositor; ? = inconclusive; . = no result given.
# Start of the data: the first 3 records as a preview:
SMILES,ugtP null kill,Mtb hypoxia rep,Mtb hypoxia rep growth,PrP UTR inh,Autofluor counter,BJeLR lethal,RN4220 kill
O=S(=O)(c1ccc(Cl)cc1)c1cc(O)ccc1O,16,5,-2,-9,2951,3,4.2
COc1ccc(-c2nc(C#N)c(NCc3ccco3)o2)cc1,8,3,5,-74,2400,5,-2.7
CS(=O)(=O)c1nc(S(=O)(=O)c2ccc(Cl)cc2)c(N2CCN(CCO)CC2)s1,3,10,8,7,5656,6,6.3

# The listing, from the start:
SMILES,ugtP null kill,Mtb hypoxia rep,Mtb hypoxia rep growth,PrP UTR inh,Autofluor counter,BJeLR lethal,RN4220 kill
O=S(=O)(c1ccc(Cl)cc1)c1cc(O)ccc1O,16,5,-2,-9,2951,3,4.2
COc1ccc(-c2nc(C#N)c(NCc3ccco3)o2)cc1,8,3,5,-74,2400,5,-2.7
CS(=O)(=O)c1nc(S(=O)(=O)c2ccc(Cl)cc2)c(N2CCN(CCO)CC2)s1,3,10,8,7,5656,6,6.3
NC(=O)C[n+]1cccc(C=NO)c1,5,-7,2,.,.,.,8.3
COc1ccc(C2=Nn3c(nnc3-c3ccccc3F)SC2)cc1OC1CCOC1 (stereo not drawn),3,5,1,19,3946,.,6.7
Cc1cccc(NC(=O)CNC(=O)c2cc(C3CC3)nn2-c2ccccc2)c1C,3,-2,12,6,5177,.,-1.9
O=C1c2ccccc2S(=O)(=O)c2cc(C(=O)N(c3ccccn3)c3ccccn3)ccc21,3,5,-9,-83,8254,6,9.1
C=CCn1c(O)c(C(C)=Nc2ccc(C(=O)O)cc2)c(=O)[nH]c1=O,-1,9,-4,5,4280,0,3.7
Cc1cc(-c2n[nH]c(=S)n2Cc2ccccc2)cs1,-4,8,0,-6,1890,2,5.6
O=C(/C=C\c1ccc2c(c1)OCO2)CC1(O)C(=O)Nc2ccccc21 (stereo not drawn),4,18,5,-43,4295,-3,3.3
O=C(NCc1ccc(F)cc1)C1CC(=O)N(CCc2ccccc2)C1 (stereo not drawn),0,8,3,2,2892,7,3.6
CCOC(=O)NC(Nc1sc2c(c1C(N)=O)CCCC2)(C(=O)OCC)C(F)(F)F (stereo not drawn),7,6,5,-23,20183*,-8,8.3
CCOC(=O)Cn1c(=O)cc(C)c2ccccc21,-9,2,6,-10,4577,4,-2.5
COc1ccc(-c2csc(NC(=O)Cc3cc(OC)c(OC)c(OC)c3)n2)cc1OC,54,6,-2,-16,3438,0,-1.3
CCCCOC(=O)CSc1nnc(-c2ccc(Cl)cc2Cl)o1,3,15,6,-16,3027,-2,-8.8
Cc1ccc(OCc2nc(C#N)c(N3CCCCC3)o2)cc1,17,16,-4,-9,5130,18,2.8
COc1ccc(-c2cc(C(=O)N3CCN(c4cccc(C)c4C)CC3)c3ccccc3n2)cc1OC,-11,3,1,-11,?,4,-0.9
Cc1c(Br)c([N+](=O)[O-])nn1CCCC(=O)Nc1sc2c(c1C(N)=O)CCC(C)C2 (stereo not drawn),-12,-6,3,-18,2456,13,-1.9
O=[N+]([O-])c1ccc(N2CCCCCC2)c(S(=O)(=O)N2CCCCC2)c1,9,.,.,-10,4594,-2,1.7
O=S(=O)(/N=C(/NS(=O)(=O)c1ccccc1)c1ccccc1)c1ccccc1,.,.,.,-53,2233,1,.
CCOc1ccccc1OCC(=O)O,15,1,6,-17,2642,6,8.9
NC(=O)C1CCCN(C(=O)CN2C(=O)NC(c3ccccc3)(c3ccccc3)C2=O)C1 (stereo not drawn),6,10,-1,-17,5303,.,3.5
CCOC(=O)c1cnn2c(C(F)F)cc(C3CC3)nc12,-4,6,7,-22,?,-1,-11
COCc1cc(C)nc(SCc2ccccc2Cl)c1C#N,3,6,15,-4,3560,-18,5.9
N[C@H]1C(O)O[C@H](CO)[C@@H](O)[C@@H]1O (stereo partly drawn),.,.,.,-13,6667,4,.
O=C(Nc1nnc(SCc2ccccc2)s1)c1cc2c(s1)CCCC2,-12,1,-2,-14,?,10,2.6
COc1cc(O)c(C(CC(=O)N2CCCC2)c2ccc3c(c2)OCO3)c(OC)c1 (stereo not drawn),-1,1,-5,-19,3030,2,1.1
O=C(O)c1cn(Cc2cccnc2)c(=O)c2ccccc12,7,9,-4,.,.,3,2.3
Cc1cc(Cl)ccc1OCC(=O)NCC(c1cccs1)N1CCOCC1 (stereo not drawn),5,2,0,-13,.,2,5.6
CCN(C(=O)CSc1nnc2ccccn12)c1c(N)n(Cc2ccccc2)c(=O)[nH]c1=O,10,9,7,-8,2456,5,-0.2
COc1ccc(NC(=O)c2ccc(COCC(F)(F)C(F)F)cc2)cc1,-1,2,3,-15,2342,-10,1.5
COc1ccc(OCc2n[nH]c(=S)n2N)cc1,10,14,6,-17,4434,1,5.5
CC1CCN(S(=O)(=O)c2nnc(NC(=O)c3ccccc3Br)s2)CC1,26,4,-4,3,4700,0,23
COC(=O)C1=C(N)c2ccccc2C1(C#N)c1ccccc1 (stereo not drawn),-8,-2,-3,-11,3001,-13,11
CCNC(=O)CN1c2cccc3cccc(c23)S1(=O)=O,0,5,-1,-9,3920,1,1.2
CCO/N=C1\C(=O)N(c2ccccc2)c2ccccc21,.,.,.,-15,3531,-5,.
O=C(O)CCc1ccc(-c2ccc(Cl)cc2)o1,2,-5,2,3,4560,1,7.3
C/C(=N\NC(=O)c1ccn(C)n1)c1cccc(NC(=O)c2ccc(C)s2)c1,.,.,.,-51,9325,-5,.
Nc1cc(Cl)ccc1Oc1ccc(Cl)cc1,25,3,-3,.,7889,9,1.2
CCOC(=O)C1C(=O)NC(c2ccccc2)=NC1c1ccc(Cl)cc1 (stereo not drawn),-3,11,10,-31,22764*,6,4.6
Cc1ccc(-c2nn(CCC(N)=O)c(=O)c3ccccc23)cc1,6,9,8,-7,3714,1,5.9
CC(C)(C)c1nc2ccccc2c2nnc(SCC(=O)Nc3nc4ccccc4s3)n12,-13,-5,2,-14,10288,-3,2.5
CCCCNC(=S)NCc1ccc2[nH]c(C)cc2c1,5,-7,12,-2,4239,1,9.0
O=C(c1ccc(F)cc1)C1CCN(C(=O)c2ccccc2)CC1,11,15,8,-11,?,-4,5.4
COc1cccc(N2CCN(C(=O)c3ccc(CS(=O)Cc4ccccc4Cl)o3)CC2)c1 (stereo not drawn),4,-4,-1,-19,4225,0,-2.6
CSc1cccc(NC(=S)NC(=O)CCc2ccccc2)c1,-19,14,23,-20,6148,3,-4.5
O=C(O)c1cc(-c2ccc(-c3ccc(F)cc3)o2)nc2ccccc12,.,.,.,-25,4094,-9,.
COc1ccc(-c2csc(-c3[nH]cnc3N)n2)cc1,28,-12,-3,-7,3853,.,9.3

# Two entries drawn at random from those above:
SMILES,ugtP null kill,Mtb hypoxia rep,Mtb hypoxia rep growth,PrP UTR inh,Autofluor counter,BJeLR lethal,RN4220 kill
CSc1cccc(NC(=S)NC(=O)CCc2ccccc2)c1,-19,14,23,-20,6148,3,-4.5
C/C(=N\NC(=O)c1ccn(C)n1)c1cccc(NC(=O)c2ccc(C)s2)c1,.,.,.,-51,9325,-5,.

# Single values from the list.
# CCN(C(=O)CSc1nnc2ccccn12)c1c(N)n(Cc2ccccc2)c(=O)[nH]c1=O | RN4220 kill = -0.2
# CC1CCN(S(=O)(=O)c2nnc(NC(=O)c3ccccc3Br)s2)CC1 | Mtb hypoxia rep growth = -4

# The listing continues.
SMILES,ugtP null kill,Mtb hypoxia rep,Mtb hypoxia rep growth,PrP UTR inh,Autofluor counter,BJeLR lethal,RN4220 kill
CC(C)N(C(=O)CSc1ncnc2sc(-c3ccccc3)cc12)C(C)C,-8,16,8,-15,2867,-2,-5.7
Cc1ccc(-n2[nH]c(C)c(C=Nc3ccc(S(=O)(=O)Nc4nccs4)cc3)c2=O)cc1C,41,.,.,-21,2613,25,8.1
Cc1cccc(C(=O)N2CCNC(=O)C2CC(=O)Nc2cccc(Cl)c2)c1 (stereo not drawn),10,8,5,-15,5682,9,1.8
COc1ccccc1OCCCC(=O)Nc1nnc(C2CCCO2)s1 (stereo not drawn),3,10,-2,-12,6432,6,4.1
Cc1c(C(=O)Nc2ccccc2F)sc2ncn(CC(=O)N3CCCCC3)c(=O)c12,-1,-9,5,-7,5898,-1,-2.7
O=C(COC(=O)c1cc([N+](=O)[O-])ccc1NCCO)Nc1cccnc1Cl,5,10,6,-7,3866,.,2.9
O=C1CSc2ccccc2N1,0,-2,10,18,3918,.,-0.6
CC(C)C(NC(N)=O)C(=O)NC1CCCCC1 (stereo not drawn),7,6,-6,.,.,10,1.7
O=C(CCc1ccc(S(=O)(=O)N2CCOCC2)cc1)N/N=C/c1ccc(F)cc1F,.,.,.,-1,3502,3,.
O=[N+]([O-])c1cc(C=NN2CCCCCC2)ccc1Cl,9,9,6,-133,2758,.,11
Cn1cc(Br)c(C(=O)NC2CCCCC2)n1,-11,.,.,-40,5338,1,4.1
CCOC(=O)c1c(C)oc2c1c(C(c1ccncc1)N1CCOCC1)c(O)c1ccccc12 (stereo not drawn),1,15,7,.,.,.,1.4

# Structures from the list above with a COOH group, in the order listed:
SMILES,ugtP null kill,Mtb hypoxia rep,Mtb hypoxia rep growth,PrP UTR inh,Autofluor counter,BJeLR lethal,RN4220 kill
C=CCn1c(O)c(C(C)=Nc2ccc(C(=O)O)cc2)c(=O)[nH]c1=O,-1,9,-4,5,4280,0,3.7
CCOc1ccccc1OCC(=O)O,15,1,6,-17,2642,6,8.9
O=C(O)c1cn(Cc2cccnc2)c(=O)c2ccccc12,7,9,-4,.,.,3,2.3
O=C(O)CCc1ccc(-c2ccc(Cl)cc2)o1,2,-5,2,3,4560,1,7.3
O=C(O)c1cc(-c2ccc(-c3ccc(F)cc3)o2)nc2ccccc12,.,.,.,-25,4094,-9,.

# Continuation.
SMILES,ugtP null kill,Mtb hypoxia rep,Mtb hypoxia rep growth,PrP UTR inh,Autofluor counter,BJeLR lethal,RN4220 kill
CC1CCCN(c2ccc(F)cc2N)C1 (stereo not drawn),-3,6,4,10,4499,-4,7.3
CCn1c(SCC(=O)Nc2cc(C)on2)nc2sc3c(c2c1=O)CCCC3,2,-3,3,-54,10211,11,21
CC(NC(=O)c1ccc(Cl)cc1)C(=O)NC1=NCCS1 (stereo not drawn),1,6,-4,-20,4323,-2,3.9
CCN(CC)C(=O)N1CCC(NC(=O)c2ccc(C(C)(C)C)cc2)CC1,5,8,1,-16,3778,-1,0.4
C=CCN(c1ccc(C(=O)Nc2cc(C)cc(C)c2)cc1)S(C)(=O)=O,7,1,9,-1,2673,-1,0.8
COc1ccc(NC(=O)C2C3CC/C=C\CCC32)cc1 (stereo not drawn),8,4,-5,-53,3627,-9,2.3
CCc1ccc(NC2Nc3cc(C)nn3S2)cc1 (stereo not drawn),8,7,2,-76,8831,-7,3.6
NC(=O)c1c(N)sc2c1CCCC2,.,.,.,-21,4191,-2,.
O=C1C2C3C=CC(CC3)C2C(=O)N1c1ccc2c(c1)OCO2 (stereo not drawn),-1,6,6,-7,2951,1,-7.2
CCNC(=S)N1CCN(C(=O)c2ccco2)CC1,-3,-8,9,-5,21889*,1,-1.2
Cc1ccc(OCc2cc(C(=O)N3CCN(c4ccccc4)CC3)no2)cc1C,5,6,1,-79,6415,2,3.7
CC1(C)Cc2nc3sc4c(SCC(=O)NCc5ccco5)ncnc4c3cc2CO1,-3,.,.,-94,4844,0,5.4
CC(Cc1ccccc1)NC(=O)/C=C/C(=O)O (stereo not drawn),-1,6,-1,-7,2177,0,3.2
CCOC(=O)CCSc1nc2c(c(C(F)(F)F)c1C#N)CCC2,6,11,2,-28,10151,8,4.8
CN(Cc1ccon1)Cc1cn(Cc2ccccc2)nc1-c1ccc2c(c1)OCO2,2,7,1,-14,2026,-4,5.3
O=C(CSc1nc2ccccc2s1)Nc1cc(S(=O)(=O)N2CCOCC2)ccc1Cl,-9,.,.,-24,2687,-7,2.5
Cc1cccc(OCC(=O)N/N=C2/SCC(=O)N2Cc2ccco2)c1,.,.,.,-13,4029,-1,.
N#C/C(=C/c1ccc(C(=O)O)cc1)C(=O)Nc1ccccc1,1,5,8,-9,2520,2,0.1
CCCN(C(=O)Cc1nc(N)n[nH]1)C1(C(=O)Nc2c(C)cccc2C)CCCCC1,-5,3,17,-9,6236,7,-1.4
